Compound activity: PubChem BioAssay, National Center for Advancing Translational Sciences (NCATS)
HTT promoter inh – HTT promoter inhibition; HEK293 HTT promoter firefly luciferase reporter (activity 0% = vehicle and -100% = no light), 24 h; Potency, µM (series often up to 57.5 µM), for inactives: top-dose activity change, negative = inhibition, actives largely listed as inhibitors; 48,000 compounds, 0.93% hits; active = well fitted inhibition curve with a large enough effect; inconclusive = small, poorly fitted or top-dose-only effect; inactive = no such curve, though single readings can be large or run the other way; note: nearly all actives have a fitted effect of over 50% in size
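HEK293 cells carrying firefly luciferase reporters were seeded at 2,500 per well in Opti-MEM and cultured for 24 h. They were then treated with compounds at up to 57.5 uM final for 24 h at 37 degrees C before Dual-Glo luminescence readout.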
PMP22 txn prim – modulators of PMP22 gene transcription in S16 Schwann cells | S16 Pmp22-F2sN Schwann cells (luciferase reporters placed in the Pmp22 gene), FLuc/NLuc coincidence luminescence, 24 h | Potency, µM (series often up to 57.5 µM), inactives show at the top dose activity change, negative = inhibition, most hits filed as inhibitors | 43,000 compounds, 2% hits | AID 1508649; active = clear falling dose curves in both reporters; inconclusive = both reporters move, but less clearly or upward; inactive = either reporter flat; the % is the NLuc reporter signal; note: % is set by controls: 0 for no effect and ±100 for the full control effect; some results filed as inactive show a strong effect at the top dose
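Reporter cells (S16 Pmp22-F2sN, 500–1,000 per well) exposed to compounds for 24 h, 37C, 5% CO2; lysis with FLuc read after 10 min, then Stop&Glo and NLuc read after 10 min.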
Active calls of the source: *; & = joins results of further samples; [ ] = another dose, or the depositor's remark. Potency is the fitted concentration of half-maximal effect.

For Cc1ccc2c(=O)cc(C(=O)Nc3ccc(S(=O)(=O)Nc4onc(C)c4C)cc3)oc2c1 the results were HTT promoter inh -13% and PMP22 txn prim -92%.
Screening COc1ccc(OC)c(NC(=O)CSc2ccnc(=O)[nH]2)c1 returned HTT promoter inh 0% and PMP22 txn prim -25%.
O=C(NC1(C(F)(F)F)N=C(c2ccccc2)N(C2CCCCC2)C1=O)c1ccc(F)cc1 (centres undefined) was read as HTT promoter inh -5% and PMP22 txn prim -6%.
O=NN(CCCl)C(=O)NCCCl was read as HTT promoter inh 10%&26%.
Screening COC(=O)c1cccc(Cn2nnc3sc4c(c3c2=O)CCC(C(C)(C)C)C4)c1 (centres undefined) returned HTT promoter inh inconclusive and PMP22 txn prim -1%.
For CCCc1ccc(S(=O)(=O)N2CCC(c3nnc(-c4cccc(C)c4)o3)CC2)cc1 the results were HTT promoter inh inconclusive and PMP22 txn prim inconclusive.
O=C(CCS(=O)(=O)c1cccc2nonc12)Nc1ccc(F)cc1F was read as HTT promoter inh -1% and PMP22 txn prim inconclusive.
Screening O=C(O)c1ccccc1C(=O)Nc1ccc(S(=O)(=O)Nc2nccs2)cc1 returned HTT promoter inh -3%.
Cn1c(=O)c2c(nc3n(-c4ccc(O)cc4)c(-c4ccc(Br)cc4)cn23)n(C)c1=O was read as HTT promoter inh 5% and PMP22 txn prim -2%.
Cc1ccc(C(=O)N2CCc3cc(CNC(=O)COc4ccccc4)ccc32)cc1 was read as HTT promoter inh 12% and PMP22 txn prim 3%.
CCN(CC)S(=O)(=O)c1ccc2c(c1)N(CC(=O)N1CCN(c3ccc(Cl)cc3)CC1)C(=O)CO2 was read as HTT promoter inh -14% and PMP22 txn prim 3%.
For COc1ccc(CCNC(=O)c2cc(-c3ccccc3)nc3ccccc23)cc1OC the results were HTT promoter inh -17% and PMP22 txn prim inconclusive.
Screening O=C(CCNS(=O)(=O)c1ccc(Br)s1)Nc1ccc(Br)cc1 returned HTT promoter inh -7% and PMP22 txn prim 3%.
O=C(NC1CC(=O)N(c2ccccc2)C1)C(c1ccccc1)c1ccccc1 (centres undefined) was read as HTT promoter inh -26% and PMP22 txn prim 15%.
For Cc1ccc(CNC(=O)CCSCc2ccccc2F)cc1 the results were HTT promoter inh 0% and PMP22 txn prim -28%.
COC(=O)c1ccccc1NC(=O)Cn1c(=O)cc(C)c2c(C)nn(C)c21 was read as HTT promoter inh inconclusive and PMP22 txn prim -11%.
Screening Cc1cccc(CSc2ccc(-c3cccs3)nn2)c1 returned HTT promoter inh 51%[activator] and PMP22 txn prim -24%.
Screening O=C(CCNS(=O)(=O)c1ccc2c(c1)CCCC(=O)N2)NCc1ccc(Cl)cc1 returned HTT promoter inh -29% and PMP22 txn prim -35%.
`CC(=O)c1cccc(NC(=O)CN2C(=O)CC(c3ccc(C)cc3C)=Nc3ccccc32)c1` gave HTT promoter inh -11% and PMP22 txn prim 1%.
`Cc1c(C(=O)Nc2ccc(F)cc2F)sc2nc3n(c(=O)c12)N=C(c1ccccc1)CS3` gave HTT promoter inh -24% and PMP22 txn prim -100%.
Screening CCc1ccc(C2N=C(N)Nc3nc4ccccc4n32)cc1 (centres undefined) returned HTT promoter inh -8% and PMP22 txn prim -61%.
For CCC(Cc1ccccc1)NC(=O)c1oc(=O)c2ccccc2c1-c1ccccc1 (centres undefined) the results were HTT promoter inh inconclusive and PMP22 txn prim inconclusive.
COc1ccc(-c2cn3nc(N4CCC(C(=O)Nc5cccc(OC)c5)CC4)sc3n2)cc1 was read as HTT promoter inh -9% and PMP22 txn prim -20%.
Screening CSc1ccc(-c2nnc(NC(=O)c3ccc4c(c3)OCCO4)o2)cc1 returned HTT promoter inh -3% and PMP22 txn prim inconclusive.
`CC1CCc2c(sc3nnn(Cc4cccc(C(=O)OC(C)C)c4)c(=O)c23)C1` (centres undefined) gave HTT promoter inh -3% and PMP22 txn prim -5%.
For CC(C)(C)OC(=O)N1CCC(c2c(C(=O)NCc3ccccc3)cnn2-c2ccc(F)cc2)CC1 the results were HTT promoter inh -24% and PMP22 txn prim inconclusive.
NC(=O)C1CCN(c2ncnc3c2cnn3-c2cccc(Cl)c2)CC1 was read as HTT promoter inh 4.5µM* and PMP22 txn prim 16%.
For COc1ccc(NC(=O)CN(C)S(=O)(=O)c2cccc3nsnc23)cc1 the results were HTT promoter inh -6% and PMP22 txn prim -8%.
CCOC(=O)c1noc2ncnc(Nc3cccc(C(F)(F)F)c3)c12 was read as HTT promoter inh -10% and PMP22 txn prim inconclusive.
Screening Cc1ccc(OCc2cc(=O)n3c4c(sc3n2)CCCC4)cc1C returned HTT promoter inh 0% and PMP22 txn prim 2%.
CCOC(=O)c1cnc2cc(Cl)c(OC)cc2c1Nc1ccc(Br)cc1C was read as HTT promoter inh -8% and PMP22 txn prim -22%.
Screening CN(C)CCCNc1oc(/C=C/c2ccc(F)cc2)nc1C#N returned HTT promoter inh -9% and PMP22 txn prim inconclusive.
COc1ccc(-c2ccnc3[nH]n(-c4ccccc4)c(=O)c23)cc1 was read as HTT promoter inh -26% and PMP22 txn prim 9%.
`COC(=O)CSc1ncc2c(n1)-c1ccccc1N(Cc1cccc(F)c1)S2(=O)=O` gave HTT promoter inh -17% and PMP22 txn prim -4%.
Screening Cc1ccc(CNC(=O)c2cc3ccc4cccnc4c3[nH]2)cc1 returned HTT promoter inh 25% and PMP22 txn prim -22%.
Screening Cc1ccc(-c2cc(C(=O)NCc3cnn(C)c3C)c3cc(Br)ccc3n2)cc1 returned HTT promoter inh 18% and PMP22 txn prim -54%.
CCCCOc1ccc(C(=O)NCCc2sc(-c3cccc(F)c3)nc2C)cc1 was read as HTT promoter inh inconclusive and PMP22 txn prim inconclusive.
For CCN1CCN(c2oc(/C=C/c3ccccc3OC)nc2C#N)CC1 the results were HTT promoter inh -4% and PMP22 txn prim -5%.
Screening CCS(=O)(=O)N1CCc2cc(C(=O)Nc3ccc(C)c(Cl)c3)ccc21 returned HTT promoter inh -7% and PMP22 txn prim inconclusive.
Screening O=c1ccc2cc(S(=O)(=O)NCc3ccc(Br)cc3)ccc2[nH]1 returned HTT promoter inh -20% and PMP22 txn prim -8%.
CCOc1ccccc1NC(=O)CSc1nc2ccccc2nc1Cc1ccc(C)cc1 was read as HTT promoter inh -27% and PMP22 txn prim inconclusive.
For COc1cc(-c2nc(SCC(=O)Nc3ccc4c(c3)OCO4)c(-c3ccccc3)[nH]2)cc(OC)c1OC the results were HTT promoter inh -14% and PMP22 txn prim -58%.
CCOC(=O)c1ccccc1NC(=O)CSc1nc2ncccc2o1 was read as HTT promoter inh -6% and PMP22 txn prim 46%.
Screening Cc1ccc2nc(NC(=O)CSc3nccn3Cc3ccc(Cl)cc3)sc2c1 returned HTT promoter inh -27% and PMP22 txn prim inconclusive.
Cc1ccc(Cl)cc1NC(=O)CSc1nc(C)c(C)c(C)c1C#N was read as HTT promoter inh 5% and PMP22 txn prim inconclusive.
`COc1cccc(CN(C(=O)c2oc3ccc(Br)cc3c2C)C2CCS(=O)(=O)C2)c1` (centres undefined) gave HTT promoter inh inconclusive and PMP22 txn prim inconclusive.
CCOc1ccc(CCNC(=O)Cn2nnc(-c3ccccc3)n2)cc1OCC was read as HTT promoter inh -10% and PMP22 txn prim -2%.
Screening CCOc1ccc(-c2c(C)nn3c(C)c(C(=O)NCCN(C)C)cnc23)cc1OCC returned HTT promoter inh -9% and PMP22 txn prim -4%.
For COc1ccccc1Cn1ccn(CC(=O)Nc2c(C)cc(C)cc2C)c(=O)c1=O the results were HTT promoter inh -26% and PMP22 txn prim 1%.
For CSc1cccc(NC(=O)CN2C(=O)CCc3cc(S(=O)(=O)N4CCCCC4)ccc32)c1 the results were HTT promoter inh inconclusive and PMP22 txn prim inconclusive.
`Cc1cc(C)c(NC(=O)CN(C)S(=O)(=O)c2ccc3c(c2)c(=O)n(C)c(=O)n3C)c(C)c1` gave HTT promoter inh -14% and PMP22 txn prim -2%.
For O=C(C1CCC(CNS(=O)(=O)c2ccc(Br)s2)CC1)N1CCN(c2ccccc2)CC1 (centres undefined) the results were HTT promoter inh 0% and PMP22 txn prim -3%.
`CCOC(=O)c1c(NC(=O)COc2ccc(Cl)cc2C)sc2c1CCCCC2` gave HTT promoter inh 2% and PMP22 txn prim -2%.
`Cc1nnc2c(N3CCN(c4ccccc4F)CC3)nc3ccc(C(=O)c4ccccc4)cc3n12` gave HTT promoter inh 14% and PMP22 txn prim -7%.
`COc1ccc(CCNC(=O)c2cnc3ccc(C)cn3c2=O)cc1` gave HTT promoter inh -2% and PMP22 txn prim -56%.
`Cc1nc2sccn2c(=O)c1S(=O)(=O)NCc1ccc(F)cc1` gave HTT promoter inh -10% and PMP22 txn prim -4%.
Cc1ccc(C)c(NC(=O)C(=O)NCCc2csc(-c3cccc(F)c3)n2)c1 was read as HTT promoter inh -11% and PMP22 txn prim -23%.
Cc1c2cnn(CC(=O)Nc3cccc(C(F)(F)F)c3)c(=O)c2c(C)n1Cc1ccccc1Cl was read as HTT promoter inh -27% and PMP22 txn prim 10%.
Screening CC(C)CCOc1ccc(C2N=C(N)Nc3nc4ccccc4n32)cc1 (centres undefined) returned HTT promoter inh -20% and PMP22 txn prim inconclusive.
For CN1CCSc2ccc(C(=O)NCc3ccccc3)cc21 the results were HTT promoter inh 19% and PMP22 txn prim 8%.

Random excerpt: five entries already listed
`Cc1cc(C)c(NC(=O)CN(C)S(=O)(=O)c2ccc3c(c2)c(=O)n(C)c(=O)n3C)c(C)c1` gave HTT promoter inh -14% and PMP22 txn prim -2%.
Cc1c2cnn(CC(=O)Nc3cccc(C(F)(F)F)c3)c(=O)c2c(C)n1Cc1ccccc1Cl was read as HTT promoter inh -27% and PMP22 txn prim 10%.
For CSc1cccc(NC(=O)CN2C(=O)CCc3cc(S(=O)(=O)N4CCCCC4)ccc32)c1 the results were HTT promoter inh inconclusive and PMP22 txn prim inconclusive.
`Cc1nnc2c(N3CCN(c4ccccc4F)CC3)nc3ccc(C(=O)c4ccccc4)cc3n12` gave HTT promoter inh 14% and PMP22 txn prim -7%.
For CN1CCSc2ccc(C(=O)NCc3ccccc3)cc21 the results were HTT promoter inh 19% and PMP22 txn prim 8%.

(cont.)
Screening CN(C)CCN(Cc1ccco1)C(=O)c1oc2ccccc2c1NC(=O)c1cccc(F)c1 returned HTT promoter inh inconclusive and PMP22 txn prim inconclusive.
`CCOc1ccc(-c2c(C)nn3c(C)c(C(=O)NCc4ccc(C)o4)cnc23)cc1OCC` gave HTT promoter inh -10% and PMP22 txn prim -26%.
Screening Cc1cccc(N(C)S(=O)(=O)c2c(C(=O)N3CCCCCC3)c(C)n(C)c2C)c1 returned HTT promoter inh -1% and PMP22 txn prim 9%.
Screening CCCN1C(C(=O)c2ccccc2)=C(OC(=O)c2ccc(C)cc2)c2ccccc2S1(=O)=O returned HTT promoter inh inconclusive and PMP22 txn prim -64%.
For CCCOC1(C(F)(F)F)NC(=O)N(c2cccc(Cl)c2)C1=O (centres undefined) the results were HTT promoter inh -14% and PMP22 txn prim -6%.
`COc1ccc(NCc2nc3ccccc3n2CCOc2ccc(C)cc2)cc1` gave HTT promoter inh inconclusive and PMP22 txn prim inconclusive.
`CCN(CCCNC(=O)c1ccc(Sc2ccc(F)cc2)c(NC(C)=O)c1)c1ccccc1` gave HTT promoter inh -26% and PMP22 txn prim -15%.
Screening COc1ccccc1N(CC(=O)NCCSc1ccccc1)S(=O)(=O)c1ccc(C)cc1 returned HTT promoter inh inconclusive and PMP22 txn prim inconclusive.
Screening Cc1nn(-c2ccc(F)cc2)c(-n2cccc2)c1C(=O)N1CCN(c2ccccc2F)CC1 returned HTT promoter inh -13% and PMP22 txn prim 16%.
COc1ccc(N(CC(=O)Nc2cccc(C(C)=O)c2)S(=O)(=O)c2ccccc2)c(OC)c1 was read as HTT promoter inh inconclusive and PMP22 txn prim -16%.
Screening CCOC(=O)c1[nH]c2c(c1Cc1ccccc1)C(=O)CC(c1ccc(Cl)cc1)C2 (centres undefined) returned HTT promoter inh inconclusive and PMP22 txn prim -22%.
For Cc1nc(-c2ccc(F)cc2)sc1CCNC(=O)Cc1ccc(F)cc1 the results were HTT promoter inh inconclusive and PMP22 txn prim inconclusive.
`COc1ccc(CCNC(=O)c2ccc3c(c2)N(Cc2ccc(F)cc2)C(=O)CS3)cc1OC` gave HTT promoter inh inconclusive and PMP22 txn prim -19%.
Screening COc1ccc(-n2nc3c(N4CCC(C(=O)NC5CCCCC5)CC4)nnc(C)c3c2C)cc1 returned HTT promoter inh -3% and PMP22 txn prim -28%.
CC1=C(c2ccc(C)c(C)c2)S(=O)(=O)N(Cc2ccc(C(=O)NCc3ccc(C)cc3)cc2)C1=O was read as HTT promoter inh -4% and PMP22 txn prim -12%.
For Cc1ccc2c(CC(=O)Nc3ccc(S(=O)(=O)N4CCCCC4C)cc3)coc2c1 (centres undefined) the results were HTT promoter inh -28% and PMP22 txn prim -8%.
For CCOC(=O)C(C)Oc1cccc2c(=O)n(CC(=O)Nc3ccc4c(c3)OCCO4)ccc12 (centres undefined) the results were HTT promoter inh 6%.
For O=c1cc(-c2ccc(F)cc2)nc(SCc2nc(-c3cccc(C(F)(F)F)c3)no2)[nH]1 the results were HTT promoter inh 8% and PMP22 txn prim -4%.
`CCCn1c(CCC(=O)Nc2cc(OC)cc(OC)c2)nc2cccnc21` gave HTT promoter inh -18% and PMP22 txn prim 13%.
